TAR Tat displ: TAR RNA-Tat peptide displacers, HIV-1, primary screen, biochemical, FRET, FAM/TAMRA-labeled Tat; actives 0.6% (n = 100,000); HIV-1 TAR RNA, Tat peptide displacement FRET; active compounds read high; z-score (test concentration not listed);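 also: score is relative to mean and SD of negative controls; some compounds called inactive have numbers as strong as hits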
CDC25B-CDK2 inh: primary biochemical HTRF screen for blockers of M-phase inducer phosphatase 2 binding to CDK2/cyclin A; P30305+P24941; HTRF CDC25B-CDK2/CyclinA binding, anti-His/anti-Flag; active compounds read high; z-score (test concentration not listed); actives 0.72% (n = 94,000);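 also: score is relative to mean and SD of negative controls; strong numbers were not always called active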
* = called active by the depositor; x = no result given.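 The calls were made as follows: active = z-score from 3 up in half or more of its runs; inactive = the rest.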

SMILES	TAR Tat displ	CDC25B-CDK2 inh
Cc1cccc(-n2cc(-c3ccccc3)c3c(=O)[nH]cnc32)c1	3.3	-2.8
Cc1cc(=O)n2nc(N3CCCC(C(=O)N4CCN(C5CCCCC5)CC4)C3)sc2n1 (centres undefined)	1.8	-0.7
CSc1nnc(SC)n1CCNC(=O)c1c(Cl)cccc1Cl	x	-0.4
CC(NC(=O)c1cnc2sccn2c1=O)c1ccc2c(c1)OCCO2 (centres undefined)	1.4	x
COc1ccc(Cn2cc3c(-c4ccccc4)nnc-3c3cc(OC)c(OC)cc32)cc1	-5.9	1.5
Cc1nn(-c2ccccc2)c(-n2cccc2)c1CN	-1.1	0.16
O=C(Nc1cccc(Cl)c1)c1nn(-c2ccc(F)cc2)ccc1=O	1.2	-0.38
COc1cccc(OCCSc2nc3ccccc3[nH]2)c1	x	-0.7
O=C(NCCc1csc2c1CCCC2)Nc1ccc(F)cc1F	-1.1	x
CC1=Nc2cc(C(=O)N3CCC(C)CC3)ccc2Sc2ccc(Cl)cc21	-0.18	-1.1
O=S(=O)(NCC(c1ccco1)N1CCN(c2ccccc2)CC1)c1cc(F)ccc1F (centres undefined)	-0.5	x
Cc1ccc2c(c1)N(S(=O)(=O)c1ccc(CN3C(=O)c4cccnc4C3=O)s1)CCO2	0.57	x
O=C(Nc1ccccc1)N(Cc1cccc2ccccc12)c1ccccn1	0.52	-0.29
Cc1nc(-c2cccs2)sc1-c1ccnn1C(=O)c1ccc(F)cc1	x	-0.84
CC(C)n1c(SCC(=O)Nc2cccc(F)c2)nc2c(oc3ccccc32)c1=O	-0.82	-0.28
Cc1ccc(-n2c(=O)[nH]c3c(C(N)=O)nc(-c4cccc(F)c4F)nc32)cc1C	0.36	x
Cc1cc2c(cc3c(SCc4cccc(F)c4)nnc(C)n32)o1	0.59	x
CCCSc1ncc(Cl)c(C(=O)Nc2nnc(SC)s2)n1	2.4	-1.2
Cc1ccc(N2CC(O)=C(c3nc4ccccc4[nH]3)C2=N)cc1O	1.9	-0.31
Cc1cc(S(=O)(=O)[C@H]2CS(=O)(=O)C[C@@H]2NCCc2ccccc2F)ccc1F	0.35	-1.6
Cc1ccc(-n2ccnc(SCc3ccc(Cl)cc3)c2=O)cc1C	0.97	x
COc1ccc(S(=O)(=O)N(CCS(=O)(=O)N2CCNCC2)C2CCCCC2)cc1	0.34	x
CC(C(=O)Nc1ccccc1Cl)n1nnc2sc3c(c2c1=O)CCCC3 (centres undefined)	1.9	-0.63
O=C(CSc1nccn(-c2ccc(F)cc2)c1=O)Nc1ccc(F)cc1F	-0.04	x
COc1ccc(/C=C/c2nn3c(-c4ccccc4Cl)nnc3s2)cc1	0.01	-0.15
O=C(CCN1C(=O)c2ccccc2S1(=O)=O)Nc1nc(-c2ccccc2)cs1	x	-1.9
C=CCn1c(SCC(=O)Nc2nnc(SCC)s2)nc2c([nH]c3ccccc32)c1=O	1.7	x
O=C(CN1C(=O)CSc2ccc(S(=O)(=O)N3CCCC3)cc21)N1CCc2ccccc21	1.1	x
Cc1ccc(OCc2nn3c(Cn4cnc5ccccc54)nnc3s2)cc1	0.86	-0.28
COC(=O)c1c(N2CCCC2=O)c2cc(F)ccc2n1C	2.7	-1.6
Cc1ccc(C2c3c(-c4ccccc4O)n[nH]c3C(=O)N2CC2CCCO2)cc1 (centres undefined)	0.33	0.63
Cc1ccc2oc(-c3ccccc3Cl)c(O)c(=O)c2c1	2.6	-2.2
c1ccc(-c2n[nH]c3ccccc23)cc1	4.3	x
c1cnc(N2CCN(Cc3ccc4c(c3)OCO4)CC2)nc1	-0.3	0.31
Cc1ccc(-c2noc(CSc3nnc(-c4ccc(Cl)cc4)n3C)n2)cc1	2.6	-0.76
NC(=O)c1c(NC(=O)c2cc(=O)c3cc(Cl)ccc3o2)sc2c1CCCC2	0.38	-1.5
O=C(O)c1cnc2sccn2c1=O	0.5	1.3
O=C(C(=O)N1CCN(c2cccc(Cl)c2)CC1)c1cn(CC(=O)N2CCOCC2)c2ccccc12	0.82	x
CCC(=O)N1c2ccc(S(=O)(=O)CCC(=O)N3CCN(c4ccccc4)CC3)cc2CC1C (centres undefined)	x	-0.87
O=S(=O)(c1ccc(-n2cccn2)cc1)N1CCOCC1	1.7	x
CC1=C(c2ccc(F)cc2)S(=O)(=O)NC1=NCc1ccc(F)cc1	0.74	x
CCOC(=O)c1c(C)[nH]c(C)c1C	0.23	0.34
CCOc1nc(Nc2ccccc2)nc(NC2CCCC2)n1	x	-2.4
O=C1CCS(=O)(=O)c2ccccc2N1Cc1cccc(F)c1	0.03	-1.6
CCc1cc2c(NCCCc3ccccc3)ncnc2s1	0.45	x
COc1cccc2c1Oc1[nH]c(-c3ccc(F)cc3)nc(=S)c1C2	-0.23	0.57
Cc1nc(C)c(-c2csc(Nc3ccc(C(=O)O)c(O)c3)n2)s1	3.4	-2.1
C=CCn1c(SCC(=O)NCc2ccc3c(c2)OCO3)nc2sc3c(c2c1=O)CCC3	x	-2
Cn1c(=O)c2c(ncn2CC(=O)Nc2nnc(CC(C)(C)C)s2)n(C)c1=O	0.56	1.7
CCOc1ccc(/C(O)=C2\C(=O)C(=O)N(c3ccccn3)C2c2ccc(Br)cc2)c(C)c1 (centres undefined)	1.9	-1.7

Additional records
SMILES	TAR Tat displ	CDC25B-CDK2 inh
CCc1ccc(-c2nc(-c3ccncc3)no2)cc1	-0.2	1
Cc1ccc(OCc2nc(-c3ccc(-n4cccc4)cc3)no2)cc1C	-0.06	-0.87
COc1ccc(Br)cc1CNC(=O)C1CCCN1c1nnc(N2CCCC2=O)s1 (centres undefined)	2.7	-2.2
CN1CCN(CCCNC(=O)c2cc3c(s2)-c2ccc(Cl)cc2SC3)CC1	1.7	-1.3
COc1cccc(NC(=O)N2Cc3cccn3-c3ccccc32)c1	1.4	x
COC(=O)C1=C(C)NC(C)=C(C(=O)OC)C1c1cccs1	x	-0.45
CCOc1ccc(C2C(C(=O)OCCOC)=C(C)NC3=C2C(=O)CC(C)(C)C3)cc1 (centres undefined)	1.6	-1.3
CCOC(=O)CSc1nc(=O)cc(N)n1-c1ccc(Cl)cc1	0.21	0.67
O=C(Nc1ccc2nc3n(c(=O)c2c1)CCCC3)c1ccco1	0.46	1.5
Cc1ccc(C2CC(=O)Nc3cc4c(cc32)OCO4)cc1Br (centres undefined)	-1	0.01
CC(C)C(=O)Nc1noc2ccccc12	1.2	1.5
Cc1ccc(S(=O)(=O)Nc2ccc(Oc3cccnc3)nc2)cc1	x	-2.1
Cc1cc(N2CCOCC2)nc(N2CCN(C(=O)Nc3cccc(Cl)c3)CC2)n1	0.82	x
CCCCSc1nnc2c(n1)OC(CC)=Nc1ccccc1-2	0.87	-1.6
Cn1c(=O)c2c(-c3ccccc3)n(-c3ccccc3NC3=CC(=O)CC(C)(C)C3)cc2n(C)c1=O	-3.2	2
CCCn1cc(S(=O)(=O)c2ccccc2)c(=O)c2cc(OCC)ccc21	-0.43	-1.8
O=C(NCC1CCN(C2CCCC2)C1)c1ccc(NC2=NC3CS(=O)(=O)CC3S2)cc1 (centres undefined)	2.5	x
CCCN(CCC)S(=O)(=O)c1ccc(CN2C(=O)c3cccnc3C2=O)s1	1.2	x
Cn1c(=O)c2c(-c3ccccc3Cl)n(CCc3ccccc3)cc2n(C)c1=O	-1.2	1.1
Clc1ccc(-c2nc(NCc3cccnc3)c3ccccc3n2)cc1	0.23	x
CC1CCN(CC2CCN(C(=O)NCC3CCCO3)CC2)CC1 (centres undefined)	0.87	x
CN(Cc1ccco1)C(=O)CN1CCSc2ccccc21	1	x
Cc1nc2ccc(Cl)cn2c(=O)c1NC(=O)c1ccc(F)cc1F	1.7	x
O=c1c(-c2ccc3c(c2)OCO3)coc2cc(O)ccc12	2.2	x
COc1cccc(-c2nnc(SCc3cccc(Cl)c3)o2)c1	-0.22	-0.98
CSc1ccc(-c2nc(CSCC(=O)O)c(C)o2)cc1	0.22	x
COc1ccc(C2CC(=O)c3cnn(-c4nc5ccccc5s4)c3C2)cc1 (centres undefined)	0.39	-1.3
O=C(CSc1nc2ccccc2nc1N1CCCCC1)N1CCN(C2CCCC2)CC1	-0.69	-2.4
CCN1CCN(c2nc3c(c(=O)[nH]c(=O)n3C)n2C(C)C)CC1	0.56	0.87
CCOC(=O)[C@H]1C(=O)C[C@@](C)(O)[C@@H](C(=O)OCC)[C@@H]1c1ccccc1	x	-1.9
Fc1ccc(C(c2ccc(F)cc2)N2CCN(C/C=C/c3ccccc3)CC2)cc1	-0.58	-2.3
CCC(=O)N1c2nc(CC)nn2C2(CCCCC2)[C@@H]2CCCC[C@@H]21	0.62	-0.68
Cc1cc(O)c2c(=O)c(-c3csc(C)n3)c(C(F)(F)F)oc2c1	0.28	-1
Cc1cc(C)c(C)c(S(=O)(=O)Nc2c(-n3cnnc3)nn(C)c2C)c1	2.5	-1.9
CCC(=O)Nc1nnc(SCc2cc(=O)n3oc(C)cc3n2)s1	-1.8	x
Cc1ccc(SCc2cc(=O)n3oc(C)cc3n2)cc1	0.43	0.58
COc1ccc(CN2C(=O)c3cccnc3C2=O)cc1S(=O)(=O)N(C)Cc1ccco1	-0.23	x
COC(=O)Nc1ccc(S(=O)(=O)N(CCO)CCO)cc1	1.1	-0.19
COc1cc(/C=C/C(=O)NCC(=O)O)cc(Br)c1OC	x	-1.2
Cc1ccc(C)n1-c1nnc(N2CCCC(C(=O)NCCCN3CCOCC3)C2)s1 (centres undefined)	0.19	-1.3
C=CCn1c(N(C)Cc2ccccc2)nc2c1c(=O)[nH]c(=O)n2C	x	0.08
CCOc1cc(C2NC(=O)c3c(sc4c3CCN(C)C4)N2)ccc1OC(=O)c1ccc(F)cc1 (centres undefined)	-0.65	-0.61
O=C(CN1C(=O)CSc2ccc(S(=O)(=O)N3CCOCC3)cc21)N1CCCc2ccccc21	0.5	x
O=S(=O)(NC1CCN(Cc2c(F)cccc2Cl)CC1)c1cccc2nonc12	x	-2.1
O=c1[nH]c(-c2cccc([N+](=O)[O-])c2)nc2ccccc12	x	-0.02
CC(NC1=CC(=O)OC12CCCCC2)c1ccccc1 (centres undefined)	0.18	0.53
O=C(Nc1ccc(Br)cn1)c1cccc(-n2cnnc2)n1	0.21	x
CCCCC1=NN(C(=O)c2ccccc2Br)C(O)(C(F)(F)F)C1 (centres undefined)	x	0.7
CCC(C)NC(=O)C1CCN(S(C)(=O)=O)CC1 (centres undefined)	0.95	x
O=S(=O)(c1ccc(Cl)cc1)c1nc(-c2cccc(Br)c2)oc1N1CCOCC1	0.53	-2.7

Further results:
SMILES	TAR Tat displ	CDC25B-CDK2 inh
O=C(Nc1nnc2n1CCS2)c1cccs1	1.2	x
CCc1c(N(C)C)nc2n(c1=O)CCCS2	-0.51	-0.72
c1ccc(N2CCN(c3ncnc4nc[nH]c34)CC2)cc1	x	1.6
CC(C)Cn1c(CN2CCN(c3ccccc3)CC2)nc2c1c(=O)n(C)c(=O)n2C	x	-0.26
CCOc1cc(-c2cc(N)n(S(=O)(=O)c3ccc(OC)cc3)n2)cc(OCC)c1OCC	x	0.34
O=C(CCc1nc2cccnc2n1Cc1cccs1)Nc1ccc2c(c1)OCO2	-1.7	-1.7
Cc1nn(C(C)C(=O)NCCN2CCCCC2C)c(=O)c2c1sc1ccccc12 (centres undefined)	-1.3	-0.71
CCc1nnc2c(Nc3ccc(OC)c(OC)c3)nc3ccccc3n12	-0.21	x
Cc1cccc(NC(=O)c2cc3cc([N+](=O)[O-])ccc3oc2=O)c1C	x	-2.5
Nc1nc(SCc2cc(=O)n3nc(C4CCCCC4)sc3n2)n[nH]1	0.15	x

Exported field by field: entries from further up.
Compound: c1ccc(N2CCN(c3ncnc4nc[nH]c34)CC2)cc1
- TAR Tat displ: x
- CDC25B-CDK2 inh: 1.6

Compound: CC(C)Cn1c(CN2CCN(c3ccccc3)CC2)nc2c1c(=O)n(C)c(=O)n2C
- TAR Tat displ: x
- CDC25B-CDK2 inh: -0.26

Compound: CCOc1cc(-c2cc(N)n(S(=O)(=O)c3ccc(OC)cc3)n2)cc(OCC)c1OCC
- TAR Tat displ: x
- CDC25B-CDK2 inh: 0.34

Compound: O=C(CCc1nc2cccnc2n1Cc1cccs1)Nc1ccc2c(c1)OCO2
- TAR Tat displ: -1.7
- CDC25B-CDK2 inh: -1.7

Another view of part of the listing above.
| Molecule | TAR Tat displ | CDC25B-CDK2 inh |
| --- | --- | --- |
| O=C(Nc1ccccc1)N(Cc1cccc2ccccc12)c1ccccn1 | 0.52 | -0.29 |
| Cc1nc(-c2cccs2)sc1-c1ccnn1C(=O)c1ccc(F)cc1 | x | -0.84 |
| CC(C)n1c(SCC(=O)Nc2cccc(F)c2)nc2c(oc3ccccc32)c1=O | -0.82 | -0.28 |
| Cc1ccc(-n2c(=O)[nH]c3c(C(N)=O)nc(-c4cccc(F)c4F)nc32)cc1C | 0.36 | x |

Later entries.
SMILES	TAR Tat displ	CDC25B-CDK2 inh
CCc1nn(CCCC(=O)NCCC(C)C)c(=O)c2cc3oc(C)cc3n12	0.18	-0.93
C=CCn1c2ccccc2n2nc(C)c(=O)nc12	x	0.39
Cc1nc(C)c(C(=O)Nc2nc(-c3ccc(Br)cc3)cs2)s1	2	-2.1
CC(=O)OC[C@H]1O[C@@H](Nc2ccc(C)cc2)[C@H](OC(C)=O)[C@@H](OC(C)=O)[C@@H]1OC(C)=O	x	-0.99
CCCN1C(=O)c2cc(C(=O)NCCN3CCCC3)nn2CC1(C)C(=O)NC1CCCC1 (centres undefined)	0.35	x
COC(=O)[C@@H]1[C@H](C(=O)OC)C2(OC(c3ccccc3)=CC2=O)C12OC(c1ccccc1)=CC2=O (some centres undefined)	x	-1
O=C(Nc1cccnc1)c1nn(-c2ccc(Cl)cc2)ccc1=O	0.08	-1.1
Cc1oc2ccc(O)c(CN3CCCC3)c2c1C(=O)OCCOc1ccccc1	1.8	-0.87
CN(c1ccccc1)S(C)(=O)=O	2.1	-2
